Yeast_UUG_start: modulators of start codon recognition fidelity in yeast; actives 0.13% (n = 350,000); S. cerevisiae UUG-firefly luciferase reporter, luminescence/redox ratio; activity score, % at 18.7 µM;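 active means replicate mean at a twofold rise or more, about +100% in these data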;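 further: firefly luciferase made from a UUG start codon reports start codon fidelity; reporter light over untreated wells divided by growth signal over untreated wells; some hits fall short of that in this replicate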
HIV_Env_fusion: HIV envelope-mediated fusion inhibition; actives 1.1% (n = 360,000); inhibition, % at 12.3 µM; HeLa-JRFL Env/CEM21 cell fusion, luciferase;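 active means mean replicate inhibition score of at least 50 and every replicate individually at or above 50; inconclusive means only one of the two criteria met; inactive means mean below 50 and not all replicates reaching 50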;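 further: 0% = plate neutral controls and 100% = maraviroc near 300 nM; one replicate is shown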
Active calls of the source: *; ? = inconclusive; [ ] = dose if it differs, or a comment. Not all compounds are listed. The share of hits here may be higher or lower than overall.

SMILES Yeast_UUG_start HIV_Env_fusion
C[C@@H]1CCCCO[C@H](CN(C)Cc2ccc(Cl)c(Cl)c2)[C@@H](C)CN([C@@H](C)CO)C(=O)c2cc(NC(=O)Nc3ccc4c(c3)OCO4)ccc2O1 -7 44[16.7_µM]
CNC[C@H]1OCCCC[C@H](C)Oc2ccc(NC(=O)Nc3ccc(OC)cc3)cc2C(=O)N([C@H](C)CO)C[C@@H]1C 10 -2[16.7_µM]
C[C@@H]1CCCCO[C@H](CN(C)C(=O)Nc2ccc(C(F)(F)F)cc2)[C@@H](C)CN([C@H](C)CO)C(=O)c2cc(NS(=O)(=O)c3ccc(F)cc3)ccc2O1 -12 -38[16.7_µM]
C[C@H]1CCCCO[C@@H](CN(C)C(=O)Nc2ccc(F)cc2)[C@@H](C)CN([C@@H](C)CO)C(=O)c2cc(NS(=O)(=O)c3cn(C)cn3)ccc2O1 -3 22[16.7_µM]
CC(C)NC(=O)N(C)C[C@@H]1OCCCC[C@@H](C)Oc2ccc(NS(=O)(=O)c3cccs3)cc2C(=O)N([C@H](C)CO)C[C@@H]1C -17 7[16.7_µM]
C[C@@H]1CN([C@@H](C)CO)C(=O)c2cc(NC(=O)Nc3ccc4c(c3)OCO4)ccc2O[C@@H](C)CCCCO[C@H]1CN(C)C(=O)c1ccccc1 -3 27[16.7_µM]
Cc1cc(C(=O)Nc2cccc3c2O[C@@H](CN(C)S(C)(=O)=O)[C@H](C)CN([C@H](C)CO)C3=O)n(C)n1 -9 -24[16.7_µM]
Cc1noc(C)c1NC(=O)Nc1ccc2c(c1)CC(=O)N([C@@H](C)CO)C[C@H](C)[C@H](CN(C)C(=O)Nc1ccc(F)cc1)O2 14 -4[16.7_µM]
Cc1noc(C)c1NC(=O)Nc1ccc2c(c1)C(=O)N([C@@H](C)CO)C[C@@H](C)[C@H](CN(C)C)OCCCC[C@H](C)O2 23 -6[16.7_µM]
CCCc1cn(CC[C@H]2CC[C@@H](NC(=O)Nc3ccc4c(c3)OCO4)[C@H](CO)O2)nn1 -14 -9[16.7_µM]
Cc1noc(C)c1S(=O)(=O)Nc1ccc2c(c1)C(=O)N([C@@H](C)CO)C[C@@H](C)[C@H](CN(C)C(=O)CCC(F)(F)F)OCCCC[C@@H](C)O2 14 -5[16.7_µM]
CC(=O)n1cc([C@H]2C=C(C(=O)N3CCCCCCC3)O[C@@H](OCc3ccc(CO)cc3)C2)c2ccccc21 -10 -4[16.7_µM]
C[C@H](CO)N1C[C@H](C)[C@H](CN(C)Cc2ccc(F)cc2)Oc2cc(C#CCN(C)C)ccc2S1(=O)=O 70 2[16.7_µM]
CO[C@@H]1CN(C)C(=O)c2cc(NC(=O)NC(C)C)ccc2OC[C@@H](C)N(C(=O)CC2CC2)C[C@@H]1C 2 -6[16.7_µM]
CCCNC(=O)C[C@H]1C[C@H]2c3cc(NS(=O)(=O)c4ccc(F)cc4)ccc3O[C@H]2[C@H](CO)O1 1 5[16.7_µM]
CNC(=O)C[C@H]1CC[C@H]2[C@@H](COc3ccc(NC(=O)C4CC4)cc3C(=O)N2C)O1 -6 9[16.7_µM]
C[C@@H]1CN([C@H](C)CO)C(=O)c2cc(-c3cncnc3)cnc2O[C@@H]1CN(C)C(=O)Cc1ccccn1 4 21[16.7_µM]
O=C(C[C@H]1C=C[C@@H](NC(=O)Cc2ccccn2)[C@H](CO)O1)NCCc1ccccc1 11 -12[16.7_µM]
Cc1ccccc1S(=O)(=O)NCC[C@H]1CC[C@H](NC(=O)Nc2cccc(Cl)c2)[C@H](CO)O1 -5 -3[16.7_µM]
CN(C)C(=O)C[C@H]1C[C@@H]2c3cc(NC(=O)NC4CCCCC4)ccc3O[C@@H]2[C@@H](CO)O1 7 -7[16.7_µM]
CC(C)NC(=O)N(C)C[C@H]1Oc2ncc(-c3ccc(C(=O)N(C)C)cc3)cc2C(=O)N([C@H](C)CO)C[C@H]1C -5 -37[16.7_µM]
CCCNC(=O)C[C@@H]1CC[C@H]2[C@@H](COc3ccc(NC(=O)c4cccc(OC)c4)cc3C(=O)N2C)O1 19 15[16.7_µM]
C/C=C/c1cnc2c(c1)C(=O)N([C@@H](C)CO)C[C@@H](C)[C@H](CN(C)C(=O)Nc1ccccc1F)O2 8 -15[16.7_µM]
CC(C)NC(=O)N(C)C[C@@H]1Oc2cc(Br)ccc2S(=O)(=O)N([C@H](C)CO)C[C@@H]1C -3 6[16.7_µM]
COc1cccc(-c2ccc3c(c2)O[C@@H](CN(C)C(=O)C2CCCCC2)[C@H](C)CN([C@H](C)CO)S3(=O)=O)c1 -3 45[16.7_µM]

Seven compounds drawn at random from those above:
SMILES Yeast_UUG_start HIV_Env_fusion
CNC(=O)C[C@H]1CC[C@H]2[C@@H](COc3ccc(NC(=O)C4CC4)cc3C(=O)N2C)O1 -6 9[16.7_µM]
Cc1cc(C(=O)Nc2cccc3c2O[C@@H](CN(C)S(C)(=O)=O)[C@H](C)CN([C@H](C)CO)C3=O)n(C)n1 -9 -24[16.7_µM]
CC(C)NC(=O)N(C)C[C@H]1Oc2ncc(-c3ccc(C(=O)N(C)C)cc3)cc2C(=O)N([C@H](C)CO)C[C@H]1C -5 -37[16.7_µM]
CO[C@@H]1CN(C)C(=O)c2cc(NC(=O)NC(C)C)ccc2OC[C@@H](C)N(C(=O)CC2CC2)C[C@@H]1C 2 -6[16.7_µM]
Cc1noc(C)c1S(=O)(=O)Nc1ccc2c(c1)C(=O)N([C@@H](C)CO)C[C@@H](C)[C@H](CN(C)C(=O)CCC(F)(F)F)OCCCC[C@@H](C)O2 14 -5[16.7_µM]
COc1cccc(-c2ccc3c(c2)O[C@@H](CN(C)C(=O)C2CCCCC2)[C@H](C)CN([C@H](C)CO)S3(=O)=O)c1 -3 45[16.7_µM]
CC(=O)n1cc([C@H]2C=C(C(=O)N3CCCCCCC3)O[C@@H](OCc3ccc(CO)cc3)C2)c2ccccc21 -10 -4[16.7_µM]

(more compounds)
SMILES Yeast_UUG_start HIV_Env_fusion
C[C@H](CO)N1C[C@H](C)[C@@H](CN(C)Cc2ccc(C(F)(F)F)cc2)OCCCC[C@H](C)Oc2ccc(NS(C)(=O)=O)cc2C1=O 8 -6[16.7_µM]
C[C@H]1CCCCO[C@H](CN(C)CC2CCCCC2)[C@@H](C)CN([C@@H](C)CO)C(=O)c2cc(NC(=O)NC3CCCCC3)ccc2O1 8 16[16.7_µM]
C/C=C/c1cnc2c(c1)C(=O)N([C@H](C)CO)C[C@@H](C)[C@H](CN(C)Cc1cncnc1)O2 -9 ?
CC(C)C#Cc1ccc2c(c1)O[C@H](CN(C)CC1CCOCC1)[C@@H](C)CN([C@@H](C)CO)S2(=O)=O 0 14[16.7_µM]
CC(=O)N(C)C[C@H]1Oc2cc(-c3cccnc3)ccc2S(=O)(=O)N([C@@H](C)CO)C[C@H]1C 5 -11[16.7_µM]
CCC(=O)Nc1ccc2c(c1)C(=O)N(C)[C@H]1CC[C@H](CC(=O)NCc3ccccc3)O[C@H]1CO2 0 -12[16.7_µM]
C[C@@H]1CN([C@@H](C)CO)S(=O)(=O)c2ccc(/C=C/c3ccccc3)cc2O[C@H]1CN(C)C(=O)C1CC1 -12 13[16.7_µM]
C[C@@H]1CN([C@@H](C)CO)C(=O)Cc2cc(NC(=O)Nc3cccc4ccccc34)ccc2O[C@@H]1CN(C)C(=O)Nc1cccc2ccccc12 -12 11[16.7_µM]
CC(C)NC(=O)Nc1ccc2c(c1)C(=O)N([C@@H](C)CO)C[C@H](C)[C@H](CN(C)Cc1ccc3c(c1)OCO3)OCCCC[C@H](C)O2 2 -24[16.7_µM]
C[C@H]1CN([C@@H](C)CO)C(=O)Cc2cc(NC(=O)Nc3ccc4c(c3)OCO4)ccc2O[C@@H]1CN(C)Cc1ccccc1 6 -20[16.7_µM]
C[C@@H]1CN([C@H](C)CO)C(=O)Cc2cc(NC(=O)CCCN(C)C)ccc2O[C@@H]1CN(C)S(=O)(=O)c1cccs1 3 -1[16.7_µM]
COc1ccc(NC(=O)Nc2ccc3c(c2)CC(=O)N([C@H](C)CO)C[C@@H](C)[C@@H](CN(C)S(C)(=O)=O)O3)cc1 7 -18[16.7_µM]
C[C@@H]1CN([C@@H](C)CO)S(=O)(=O)c2ccc(C3=CCCC3)cc2O[C@H]1CN(C)CC1CCCC1 -5 12[16.7_µM]
CNC[C@H]1Oc2ncc(-c3cccc(F)c3)cc2C(=O)N([C@H](C)CO)C[C@H]1C 5 -3[16.7_µM]
CCNC(=O)C[C@H]1CC[C@@H]2[C@@H](COc3ccc(NC(=O)c4ccc5c(c4)OCO5)cc3C(=O)N2C)O1 8 -12[16.7_µM]
Cc1ccc(S(=O)(=O)NCC[C@@H]2CC[C@H](NC(=O)c3cccc(F)c3)[C@H](CO)O2)cc1 -2 10[16.7_µM]
Cc1ccc(S(=O)(=O)N(C)C[C@@H]2Oc3ccc(NC(=O)Cn4cnnn4)cc3CC(=O)N([C@H](C)CO)C[C@H]2C)cc1 -4 5[16.7_µM]
C[C@H]1CN([C@@H](C)CO)S(=O)(=O)c2ccc(C#Cc3ccccc3F)cc2O[C@@H]1CN(C)C(=O)Cc1ccccc1 2 10[16.7_µM]
C[C@@H]1CCCCO[C@@H](CN(C)S(=O)(=O)c2ccc(Cl)cc2)[C@H](C)CN([C@@H](C)CO)C(=O)c2cc(NC(=O)Nc3ccc(C(F)(F)F)cc3)ccc2O1 -5 23[16.7_µM]
CCCNC(=O)C[C@@H]1CC[C@H]2[C@H](COc3ccc(NC(=O)c4cccc(OC)c4)cc3C(=O)N2C)O1 12 6[16.7_µM]
Cc1ccc(S(=O)(=O)N(C)C[C@H]2OCCCC[C@H](C)Oc3ccc(NC(=O)Nc4ccc(F)cc4)cc3C(=O)N([C@H](C)CO)C[C@@H]2C)cc1 -9 1[16.7_µM]
CC(C)NC(=O)N(C)C[C@H]1Oc2ncc(C#CC3CCCC3)cc2C(=O)N([C@H](C)CO)C[C@@H]1C 0 7[16.7_µM]
CCCNC(=O)C[C@H]1CC[C@H]2[C@@H](COc3ccc(NC(=O)Cc4ccccc4)cc3C(=O)N2C)O1 -5 6[16.7_µM]
Cc1noc(C)c1S(=O)(=O)Nc1ccc2c(c1)C(=O)N([C@@H](C)CO)C[C@@H](C)[C@H](CN(C)C(=O)CCC(F)(F)F)OCCCC[C@H](C)O2 18 1[16.7_µM]
C[C@H](O)C#Cc1cnc2c(c1)C(=O)N([C@H](C)CO)C[C@H](C)[C@@H](CN(C)C(=O)c1ccccc1F)O2 6 -21[16.7_µM]
Next section.
SMILES Yeast_UUG_start HIV_Env_fusion
C[C@H]1CN([C@@H](C)CO)C(=O)c2cccc(NC(=O)NC3CCCCC3)c2O[C@@H]1CN(C)Cc1ccc(Oc2ccccc2)cc1 2 9[16.7_µM]
CN(C)CC(=O)N[C@@H]1CC[C@@H](CCNC(=O)Nc2ccc(F)cc2)O[C@H]1CO 4 -10[16.7_µM]
C[C@@H]1CN([C@H](C)CO)C(=O)c2cc(-c3cccnc3)cnc2O[C@H]1CN(C)C(=O)Nc1ccc(F)cc1 8 17[16.7_µM]
CNC[C@@H]1Oc2ccc(NS(=O)(=O)c3c(C)noc3C)cc2CC(=O)N([C@@H](C)CO)C[C@H]1C -7 15[16.7_µM]
C[C@@H]1CCCCO[C@@H](CN(C)C(=O)Nc2ccccc2)[C@H](C)CN([C@H](C)CO)C(=O)c2cc(NC(=O)C3CCCCC3)ccc2O1 -12 -13[16.7_µM]
C[C@H]1CN([C@@H](C)CO)C(=O)c2cc(-c3cccc(C#N)c3)cnc2O[C@@H]1CN(C)C -12 19[16.7_µM]
O=C(N[C@@H]1C=C[C@H](CC(=O)N2CCOCC2)O[C@@H]1CO)c1ccccn1 -11 -4[16.7_µM]
C[C@@H]1CN([C@@H](C)CO)C(=O)c2cccc(NC(=O)c3cnccn3)c2O[C@H]1CN(C)Cc1ccc(Oc2ccccc2)cc1 -6 7[16.7_µM]
C[C@@H]1CCCCO[C@H](CN(C)Cc2ccccc2)[C@@H](C)CN([C@@H](C)CO)C(=O)c2cc(NC(=O)CCC(F)(F)F)ccc2O1 8 -37[16.7_µM]
COc1ccccc1NC(=O)N(C)C[C@H]1Oc2ncc(C#CCC(C)C)cc2C(=O)N([C@@H](C)CO)C[C@@H]1C 11 -11[16.7_µM]
C[C@H](CO)N1C[C@H](C)[C@H](CN(C)C(=O)Nc2ccc(C(F)(F)F)cc2)Oc2ncc(/C=C/c3ccccc3)cc2C1=O 1 8[16.7_µM]
O=C(C[C@H]1C=C[C@H](NC(=O)c2cccc(F)c2)[C@H](CO)O1)NCCN1CCCC1 11 2[16.7_µM]
O=C(C[C@H]1C=C[C@@H](NC(=O)c2ccncc2)[C@@H](CO)O1)NCC1CCCCC1 2 13[16.7_µM]
N#C[C@@H]1[C@H](c2ccc(-c3cccc(F)c3)cc2)[C@H](CO)N1C(=O)CN1CCOCC1 -13 49[16.7_µM]
Cc1noc(C)c1NC(=O)N1C[C@@H](O)COC[C@@H]2O[C@@H](CC(=O)NCC3CC3)CC[C@H]21 -7 -4[16.7_µM]
C[C@H](CO)N1C[C@H](C)[C@H](CN(C)Cc2ccc(C(=O)O)cc2)OCCCC[C@H](C)Oc2ccc(NS(=O)(=O)c3ccc(Cl)cc3)cc2C1=O 4 -18[16.7_µM]
C[C@H]1CN([C@@H](C)CO)C(=O)Cc2cc(NS(=O)(=O)c3ccc(Cl)cc3)ccc2O[C@@H]1CN(C)Cc1ccccc1 1 5[16.7_µM]
C[C@H](CO)N1C[C@H](C)[C@@H](CN(C)C(=O)C2CCC2)Oc2ncc(/C=C/c3ccccc3)cc2C1=O 10 26[16.7_µM]
CO[C@H]1CN(C)C(=O)c2cc(NS(=O)(=O)c3ccccc3)ccc2OC[C@H](C)N(Cc2ccccn2)C[C@@H]1C -13 -8[16.7_µM]
COc1ccc(S(=O)(=O)N(C)C[C@H]2OCCCC[C@H](C)Oc3ccc(NC(=O)Nc4ccc(C(F)(F)F)cc4)cc3C(=O)N([C@@H](C)CO)C[C@@H]2C)cc1 -10 8[16.7_µM]
